# Bioassay records from PubChem BioAssay.
# Vaccinia Venus – qHTS for Stage-Specific Inhibitors of Vaccinia Orthopoxvirus: Venus Reporter Primary qHTS | Vaccinia virus Venus reporter expression, fluorescence | actives 0.46% (n = 330,000) | Potency, µM (titrated, usually from 36.5 µM), without a hit: top-dose activity change, negative = inhibition, actives largely listed as inhibitors | AID 720580, 2013; active means well fitted inhibition curve with a large enough effect; inconclusive means small, poorly fitted or top-dose-only effect; inactive means no such curve, though single readings can be large or run the other way; tested in A549 cells; also: nearly all actives have a fitted effect of over 30% in size; inactives centre near -10
# VACV mCherry inh – qHTS for Stage-Specific Inhibitors of Vaccinia Orthopoxvirus: mCherry Reporter Primary qHTS; Potency, µM (top dose mostly 36.5 µM), for the others: top-dose activity change, negative = inhibition, hits mostly inhibitors; Vaccinia virus mCherry reporter infection, fluorescence; about a quarter of the inactives have no number; actives 0.63% (n = 310,000); AID 720579, 2013; active = well fitted inhibition curve with a large enough effect; inconclusive = small, poorly fitted or top-dose-only effect; inactive = no such curve, though single readings can be large or run the other way; tested in A549 cells; also: nearly all actives have a fitted effect of over 35% in size; inactives centre near -10
# Numbers without * were called inactive; i = inactive; ? = inconclusive; · = no result given; & = joins results of further samples; [ ] = dose if it differs, or a comment. % is scaled to controls: 0 for no effect and ±100 for the full control effect; potency is read from the fitted curve at half-maximal effect. The order is random; overall some 0.82% were active at least once.
SMILES,Vaccinia Venus,VACV mCherry inh
CN1CCC(=C2c3ccccc3C=Cc3ccccc32)CC1,-9%,i
Cc1nnc2c(N3CCN(c4ccccc4F)CC3)nc3ccccc3n12,-15%,-19%
O=C(NC(=S)Nc1ccc(N2CCOCC2)cc1)c1cccc([N+](=O)[O-])c1,1%,i
COc1ccc(OC)c(CNC(=O)Cc2c(C(=O)O)[nH]c3ccc(Cl)cc23)c1,6%,-5%
CCN(Cc1ccccc1)S(=O)(=O)c1ccc(C(=O)N(CCCN(C)C)c2nc3ccc(F)cc3s2)cc1,-24%,i
CN1CCN(C(=O)C2=C[C@@H](c3ccc(C(F)(F)F)cc3)C[C@@H](OCCCCO)O2)CC1,-1%,-3%
Cc1cccc(NC(=O)Cc2noc3ccccc23)c1C,-14%,-13%
FC(F)(F)c1cc(Cl)c2nc(-c3ccccc3)c(Cc3ccccc3)n2c1,-8%,i
O=C(NNc1nc2cc3c(cc2s1)OCO3)c1ccc(F)cc1,-21%,-4%
Cc1ccccc1C(=O)c1cccn1CC(=O)N1CCCCCC1,-27%,·
CCn1cc2nc(SCc3c(F)cccc3Cl)n(CCc3ccccc3)c(=O)c2n1,-18%,?
CCc1cccc(C)c1NC(=O)CSc1nnc(CCCOc2ccc(Cl)cc2Cl)n1C,?,-16%
CCOC(=O)N1CCC(Nc2ccc3nnc(-c4ccccc4)n3n2)CC1,-29%,-4%
COCCCNC(=S)N1CCN(C(=O)C(=O)Nc2ccc(C(=O)OC)cc2)CC1,-15%,-13%
CCn1cc(C(=O)NCCc2ccc(OC)c(OC)c2)c(=O)c2cc(S(=O)(=O)N3CCCCCC3)ccc21,3%,-3%
Cc1cccc(CN2CCc3c([nH]c4ccccc34)C2CC(C)C)n1 (stereo unspecified),-6%,-16%
Cn1c(=O)n(C)c2cc(/C=C(/C#N)C(=O)NCc3ccco3)ccc21,-12%,i
CN(C)C(=O)NC(O)C(Cl)(Cl)Cl (stereo unspecified),-13%,-8%
O=C(Nc1cccc(/C=C/c2ccccn2)c1)c1ccc(-n2cncn2)cc1,-7%,-8%
O=C(O)COc1ccccc1/C=N/NC(=O)c1cc(-c2ccc(F)cc2)nc2ccccc12,-5%,3%

# Continued:
SMILES,Vaccinia Venus,VACV mCherry inh
Cc1cc(C(=O)N2CCC(C(=O)O)CC2)c(C)o1,-11%,-16%
COC(=O)NNC(=S)Nc1cc(OC)ccc1OC,-6%,-16%
COc1ccc(-c2cn3cccnc3n2)cc1NC(=O)Cc1ccccc1,-3%,-12%
COc1ccc(C(=O)Nc2cc(OC)c(NC(=O)Nc3ccccc3)cc2OC)cc1,-21%,-26%
CN1CCN(c2c(/C=N/O)c3ccccc3n2C)CC1,-7%,-6%
O=C(COC(=O)/C=C/c1ccc(OC(F)F)cc1)NC1CCCCCC1,-3%,-6%
O=C(CCCOc1ccccc1)N1CCc2ccccc2C1,-2%,-12%
CC(=O)CSc1nnc2[nH]c(=O)cc(N)n12,-13%,-10%
CCN(CC(=O)Nc1c(F)cccc1F)C(=O)c1ccc2ccccc2n1,-16%,i
COC(=O)c1ccc(NC(=O)CCc2nnc3ccc(NCc4ccco4)nn23)cc1,-8%,i
CCN(CC)c1ccc(NS(=O)(=O)c2cc3[nH]c(=O)c(=O)[nH]c3cc2C)c(C)c1,6%,6%
c1ccc(Nc2nc(Nc3ccccc3)nc(-n3cccn3)n2)cc1,?,?
C[N+]1(CC(=O)c2ccc(O)c(O)c2)CCOCC1,-15%,-13%
CCOc1ccccc1OCCC(=O)NNC(=O)Cn1nc(C)cc1C,-1%,-3%
CCOC(=O)C[C@H]1c2cc(F)ccc2S(=O)(=O)N1Cc1ccc(OC)cc1,8%&-8%,-15%
Fc1ccccc1N1CCN(C(c2ccnc3ccccc23)c2nnnn2-c2ccc3c(c2)OCCO3)CC1 (stereo unspecified),-9%,-5%
OC1(c2cccc(C(F)(F)F)c2)CCN(c2ncnc3c2[nH]c2ccccc23)CC1,?,?
COc1cc(C2NC(=O)C(C#N)=C(S)N2c2ccccc2)ccc1OC(C)C (stereo unspecified),-8%,-7%
CCOC(=O)N1CCN(C(=O)c2ccc(N3CCCC3=O)cc2)CC1,0%,-7%
COC(=O)c1cncn1Cc1ccccc1,-6%,i

# The listing continues.
SMILES,Vaccinia Venus,VACV mCherry inh
COc1cc(=O)n2c(c1C(=O)N(C)Cc1nonc1C)CCN(Cc1cc(C)c(C)cc1C)CC2,-23%,-2%
c1ccc(C[C@H]2CNCCN2CCC23CC4CC(CC(C4)C2)C3)cc1,?,?
COC(=O)C1=C(C)NC(c2c(O)ccc3ccccc23)C(C(=O)OC)=C1C (stereo unspecified),-21%,-14%
CN(C)CCCCNCCCNC(=O)/C=N\O,-4%,i
O=C(CSc1ncnc2c1cnn2-c1ccccc1)NC1CCCC1,-11%,i
CCN1C(=NCc2ccco2)N[C@@H](c2cccc(F)c2)C(C(=O)OC)=C1C,-8%,-3%
CCCC12CN3CCN(CC(C3)/C1=N\NC(=O)c1ccc(C(C)(C)C)cc1)C2,-10%,-19%
CN(CC(=O)O)S(=O)(=O)c1cccs1,-11%,-7%
Cc1ccn2cc(-c3cccc(NC(=O)c4cccs4)c3)nc2c1,-24%,-10%
COc1ccccc1N1CCN(C(=O)CSc2n[nH]c(-c3ccccc3)n2)CC1,-12%,-5%
C=CCn1c(SCC(=O)Nc2ccc(S(N)(=O)=O)cc2)nnc1-c1cnccn1,-21%,i
Cc1ccn2c(=O)c(C(=O)NCc3ccccc3Cl)c(O)nc2c1,8%,0%
Cc1ccc(N2CCN(C(=O)c3c(C)oc4ncnc(N5CCCCC5)c34)CC2)c(C)c1,-22%,i
COc1ccc([C@@H]2CC=C(C(=O)O)[C@H](c3ccccc3F)N2S(=O)(=O)c2ccccc2C)cc1,-8%,i
CCc1ccccc1OCCCCN1CCCC1,-9%,-5%
C=CCn1c(-c2c[nH]c3ccccc23)n[nH]c1=S,-11%,-3%
Cc1cccc(-n2cnc(C(=O)N3CCN(C)CC3)c2)n1,-4%,-14%
c1ccc2c(NC3C4CC5CC(C4)CC3C5)nc(N3CCOCC3)nc2c1 (stereo unspecified),?,?
CC(=O)c1ccc(NC(=O)CSc2nccn2CCc2ccccc2)cc1,-16%,-21%
COc1ccc(-c2nnc(SCC(=O)N(C)C3CCCCC3)o2)cc1OC,-18%,?

# Two of the compounds above, with each value named:
SMILES: Cc1ccn2cc(-c3cccc(NC(=O)c4cccs4)c3)nc2c1
  Vaccinia Venus: -24%	VACV mCherry inh: -10%

SMILES: COc1ccccc1N1CCN(C(=O)CSc2n[nH]c(-c3ccccc3)n2)CC1
  Vaccinia Venus: -12%	VACV mCherry inh: -5%

# Following part
SMILES,Vaccinia Venus,VACV mCherry inh
O=C1c2ccc(Oc3ccc([N+](=O)[O-])cc3)cc2C(=O)N1CCCO,-4%,i
OCCCNc1nc(-c2ccc(Cl)cc2)nnc1-c1ccccc1,?,-29%
O=C(Nc1nc([C@@H]2O[C@H](CO)[C@@H](O)[C@H](O)[C@H]2O)cs1)NC(c1ccccc1)c1ccccc1,2%,i
Cc1cccc(C(=O)N2CC(=O)Nc3ccc(F)cc3C2c2ccc(F)cc2)c1 (stereo unspecified),-10%,i
CN(CCCC(=O)Nc1ccccc1)S(=O)(=O)c1ccc(Cl)cc1,-18%,-10%
CCc1nc2ccc(C(=O)N(CC)CCN(C)C)cn2c1N(C)Cc1ccc(OC)cc1,-8%,-11%
CC1CCCC(C)N1C(=O)COC(=O)C1CCN(S(=O)(=O)c2c(Cl)cccc2Cl)CC1 (stereo unspecified),-10%,-11%
O=C1NC(=O)C(c2ccccc2)N1 (stereo unspecified),-8%,-5%
c1ccc(CCNc2ncnc3c2nnn3Cc2ccccc2)cc1,-16%,-19%
CCCc1nc2ccc(N)cc2c(=O)n1Cc1ccccc1Cl,-15%,0%
COc1ccc(N2C(=O)/C(=C3/C=CC=CN3C)SC2=S)cc1,-15%,i
CC(NS(=O)(=O)c1ccc(Br)cc1)C(=O)NCCc1ccccc1 (stereo unspecified),-8%,i
O=C(CSC1=NCCS1)N1CCCC1,-17%,·
CCN1C(=O)c2ccccc2S(=O)(=O)c2ccc(C(=O)NCc3ccc(F)cc3)cc21,-16%,-10%
COC(=O)[C@@]1(Cc2ccc(F)cc2)[C@H]2c3cc(C(=O)N4CCCC4)n(Cc4ccc(Cl)c(C(F)(F)F)c4)c3C[C@H]2CN1C(=O)c1ccccc1,-29%,-18%
COc1ccc(CCNC(=O)c2oc3ccc(S(=O)(=O)N4CCOCC4)cc3c2C)cc1OC,-9%,-13%
CC(C)N(Cc1ccccc1)C(=O)COC(=O)c1cnc(Cl)c(Cl)c1,?,-15%
Cc1ccc(-c2ccc(=O)n(CC(=O)NCCN3C(C)CCCC3C)n2)cc1 (stereo unspecified),-16%,0%
Cc1c(C)n(Cc2ccccc2)c2ccc(C(=O)NC(C)c3ccccc3)cc12 (stereo unspecified),-15%,-23%
Cc1ccccc1-n1nc(-c2ccc(N)cc2)cc1N,-20%,·

# Some of these compounds in order of length of the SMILES, high to low:
SMILES,Vaccinia Venus,VACV mCherry inh
Cc1cccc(C(=O)N2CC(=O)Nc3ccc(F)cc3C2c2ccc(F)cc2)c1 (stereo unspecified),-10%,i
O=C1c2ccc(Oc3ccc([N+](=O)[O-])cc3)cc2C(=O)N1CCCO,-4%,i
OCCCNc1nc(-c2ccc(Cl)cc2)nnc1-c1ccccc1,?,-29%
Cc1ccccc1-n1nc(-c2ccc(N)cc2)cc1N,-20%,·

# Next part.
SMILES,Vaccinia Venus,VACV mCherry inh
CCN(CC)C(=O)CN1CCC(c2nc3cc(C)c(C)cc3[nH]2)CC1,-23%,-9%
Cc1ccc(S(=O)(=O)CCC(=O)Nc2sccc2C(N)=O)cc1,-5%,-3%
O=C(CSc1ccc(Cl)cc1)Nc1nnc(-c2ccco2)o1,-17%,-29%
O=C(COC(=O)c1cc[n+]([O-])cc1)NCC12CC3CC(CC(C3)C1)C2,-23%,·
O=[N+]([O-])c1ccc(NCCCN2CCOCC2)nc1,-6%,i
CC(=O)OC12CC3CC(C1)C(=NO)C(C3)C2,-7%,-12%
CCOC(=O)N1CCC(n2c(SCC(=O)c3ccccc3)nc3ccsc3c2=O)CC1,-12%,i
Cc1ccc2c(c1)N(C(=O)CCC(=O)NCc1cccs1)CC(C)O2 (stereo unspecified),-11%,-5%
CCCC(C)C1(CC)C(=O)NC(=Nc2ccc(OC)cc2)NC1=O (stereo unspecified),-16%,-7%
COc1ccc(-c2cc(C)no2)cc1S(=O)(=O)Nc1ccccc1,-2%[7.34 µM],-9%[7.34 µM]
CN(c1cccc(NS(=O)(=O)c2ccccc2)c1)S(C)(=O)=O,0%,-1%
COc1ccc(CN2CC(C(=O)NCCC(C)C)CC2=O)cc1 (stereo unspecified),10%,-8%
O=C(N/C(=C/c1ccco1)C(=O)N1CCCC1)c1cccs1,-14%,-20%
COC(=O)CSc1nnc(NC(=O)C2CC(=O)N(c3ccc(F)cc3)C2)s1 (stereo unspecified),-10%,5%
CCCn1nnc(NC(=O)c2ccc(Br)o2)n1,-13%,-15%
CCOC(=O)Cc1c(C)nc(SC)[nH]c1=O,-4%,i
Cc1ccc(CN2CCN(Cc3ccncc3)CC2CCO)o1 (stereo unspecified),-4%,i
O=C(c1ccco1)N1CCN(Cc2cccc(F)c2)CC1,-6%,-13%
CSc1nc(O)c(C(c2ccc(F)cc2)c2c(O)nc(SC)[nH]c2=O)c(=O)[nH]1,12%,i
Nc1c(C(=O)c2ccc3c(c2)OCO3)sc(Nc2ccccc2F)c1S(=O)(=O)c1ccccc1,-18%,-29%

# (continued)
SMILES,Vaccinia Venus,VACV mCherry inh
COc1ccc2c(CNCc3cccs3)c(C(=O)O)n(Cc3cccc(F)c3)c2c1,-11%,-8%
C/C(=N\Nc1nc2ccccc2s1)c1cccs1,-21%,-23%
O=C(NC(c1ccc(Cl)cc1)c1ccsc1)C1CCN(CCOc2ccc(Cl)cc2)CC1 (stereo unspecified),-8%,0%
CN1CCN(c2nc(-c3ccc(Cl)s3)cs2)CC1,-15%,-23%
CCc1cc2c(N3CCCCC3)ncnc2s1,-22%,·
COc1ccc2cc(C(C)C(=O)Nc3cccc(S(=O)(=O)N(C)C)c3)ccc2c1 (stereo unspecified),?,-22%
COc1ccccc1NC(=O)N1CCN(C(=O)c2ccco2)CC1,0%,-14%
O=C(NCc1nnc(SCC(=O)N2CCCC2)o1)c1c(F)cccc1F,-13%,0%
Cc1ccc(-c2nnc3c(C(F)(F)F)nc4ccccc4n23)cc1,-7%,0%
CCc1nn(CCCC(=O)NC2CCCCC2C)c(=O)c2cc3occc3n12 (stereo unspecified),-28%,i
CC12CCC(C(=O)NC3CCCC3)(CC1=O)C2(C)C (stereo unspecified),-6%,-9%
CC(=O)Nc1cccc(NC(=S)Nc2cccc(Cl)c2Cl)c1,-2%,-9%
C[C@@H]1CN([C@@H](C)CO)C(=O)CCCn2nncc2CO[C@H]1CN(C)S(=O)(=O)c1ccc(Cl)cc1,-9%,-4%
Cc1ccc(C(=O)COC(=O)c2c(C)cc(=O)oc2C)cc1[N+](=O)[O-],-14%,-2%
